Compound activity as filed in PubChem BioAssay.
CSC inhib: cancer stem cell viability inhibitors, primary screen, luminescence. cancer stem cell-like cells viability. inhibition, % at 7.5 µM. 300,000 tested, 1.1% active;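 active = mean at 75% or more and at least half the replicates too; tested in HMLE shEcad cells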;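 also: 0% = median of negative and 100% = median of positive control wells; the first replicate is given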
PABP FP inh: PABP poly(A) RNA binding inhibitors, primary screen, biochemical, fluorescence polarization, uHTS; inhibition, % at 35 µM; AID 2014, 2009; 290,000 tested, 1% active;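 active = 50% or more with normal probe brightness, or confirmed in later tests; about a fifth of its hits are not listed in these tables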;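 also: calls also rest on retests at 20 µM and on dose response follow-up; controls were probe without protein and protein plus probe with vehicle; some compounds called inactive have numbers as strong as hits; many hits fall short of the cut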
Target sequence (P11940 whole entry, looked up): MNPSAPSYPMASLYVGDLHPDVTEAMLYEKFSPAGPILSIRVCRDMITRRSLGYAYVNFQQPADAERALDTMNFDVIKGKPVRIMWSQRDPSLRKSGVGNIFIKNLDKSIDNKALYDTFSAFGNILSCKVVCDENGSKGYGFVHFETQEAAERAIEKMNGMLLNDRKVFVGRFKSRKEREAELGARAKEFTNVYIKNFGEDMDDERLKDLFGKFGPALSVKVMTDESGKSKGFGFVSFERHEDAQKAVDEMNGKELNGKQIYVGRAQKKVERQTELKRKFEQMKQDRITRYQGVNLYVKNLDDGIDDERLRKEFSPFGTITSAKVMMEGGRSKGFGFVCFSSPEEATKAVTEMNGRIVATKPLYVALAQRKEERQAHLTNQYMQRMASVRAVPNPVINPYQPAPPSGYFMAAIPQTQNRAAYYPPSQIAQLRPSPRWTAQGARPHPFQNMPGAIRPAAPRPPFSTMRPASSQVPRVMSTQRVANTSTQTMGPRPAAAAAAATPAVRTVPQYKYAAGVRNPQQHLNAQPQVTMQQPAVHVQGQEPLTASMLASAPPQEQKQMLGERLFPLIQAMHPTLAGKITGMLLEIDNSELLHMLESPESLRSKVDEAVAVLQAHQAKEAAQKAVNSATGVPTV
Rce1 inhib: yeast Rce1p protease inhibitors, primary screen, biochemical, fluorescence, cell-free homogeneous | yeast membranes, quenched prenylated peptide cleavage fluorescence | AID 2563, 2010 | 290,000 tested, 0.27% active | calls only | CAAX prenyl protease 2 (Saccharomyces cerevisiae (strain ATCC 204508 / S288c)), Q03530;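 active = fall in fluorescence gain of 50% or more versus controls, with final raw signal at or below 3038400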;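 also: plate controls were neutral control wells for no effect and wells lacking membranes for full effect; tested at 10 µM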
UUG fidelity: modulators of yeast start codon fidelity, primary screen, whole organism, S. cerevisiae, single point, plate reader | 350,000 tested, 0.13% active | S. cerevisiae UUG-firefly luciferase reporter, luminescence/redox ratio | activity score, % at 18.7 µM;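 active = replicate mean at a twofold rise or more, about +100% in these data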;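 also: firefly luciferase made from a UUG start codon reports start codon fidelity; reporter light over untreated wells divided by growth signal over untreated wells; some hits fall short of that in this replicate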
MT1-MMP act inh: blockers of MT1-MMP proenzyme processing, primary screen, HT1080 RFP-PRO-GFP cells, GFP/RFP fluorescence | Matrix metalloproteinase-14 (Homo sapiens), P50281 | GFP/RFP ratio fluorescence, overnight; percent of plate control window, DMSO zero | GFP/RFP ratio change, % at 20 µM | 360,000 tested, 0.061% active;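 active = GFP/RFP ratio change of at least 30% with cell ATP level not reduced by more than half and red fluorescence within 50% of control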; also: strong numbers were not always called active
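Assay system – RFP-PRO-GFP reporter HT1080 cells · Compound dosing – single dose of 20 µM compound, 1% DMSO final · Incubation – overnight compound exposure at 37 °C · Measure – GFP/RFP fluorescence ratio · Benchmarks – DMSO wells and RFP-L50D-GFP cells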
HIV Env fusion: inhibitors of HIV-1 Env-driven cell-cell fusion, primary screen, HeLa-JRFL effector, CEM21 target cells, luciferase; inhibition, % at 12.3 µM; 360,000 tested, 1.1% active; AID 651610, 2012;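 active = mean replicate inhibition score of at least 50 and every replicate individually at or above 50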;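 also: 0% = plate neutral controls and 100% = maraviroc near 300 nM; one replicate is shown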
eIF4H FP inh: human eIF4H binding inhibitors, primary screen, translation initiation inhibitor project, biochemical, uHTS, fluorescence polarization | Eukaryotic translation initiation factor 4H (Homo sapiens), Q15056 | eIF4H fluorescence polarization binding assay | inhibition, % at 35 µM | 290,000 tested, 0.94% active | AID 2012, 2009;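 active = 50% or more with normal probe brightness, or confirmed in later tests; about a fifth of its hits are not listed in these tables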;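 also: calls also rest on retests at 20 µM and on dose response follow-up; 0% = protein and probe with vehicle and 100% = probe without protein; strong numbers were not always called active; many hits fall short of the cut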
eIF4H FP inh retest: also measured in eIF4H FP inh; calls as there; inhibition, %; compound at 20 µM; confirmation average;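 mean of two retest wells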
PABP FP inh retest: second read-out of PABP FP inh, no call of its own (marks repeat the call); inhibition, %; compound at 20 µM; confirmation repeats;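 mean of two retest wells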
MT1-MMP act inh RFP: also measured in MT1-MMP act inh; calls as there; RFP signal change, %; measured here: RFP expression control read;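 0 = vehicle wells; hits needed this value within 50% of zero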
Starred values were filed as active, the others as inactive; i = inactive; . = no result given.

SMILES	CSC inhib	PABP FP inh	Rce1 inhib	UUG fidelity	MT1-MMP act inh	MT1-MMP act inh RFP	HIV Env fusion	eIF4H FP inh	others
COC(=O)[C@@H]1CCCN1Cc1nc(Cc2ccc(OC)c(OC)c2)no1	-13	-1	i	.	2	3	-1	-1
CCn1c(O)c(N=NC(=O)Cn2ccc(C(F)(F)F)n2)c2ccccc21	-17	26	i	.	4	2	0	5
COC(C(=O)Nc1ccc(Br)cc1F)c1ccccc1 (stereo unspecified)	13	1	i	.	1	0	-3	2
Cc1ccc2nc(NCc3ccco3)c(C=NCc3ccco3)c(=O)n2c1	-4	86*	i	-10	0	-1	-26	68*
Cc1ccc(Cl)cc1NC(=O)CCS(=O)(=O)c1ccc2c(c1)n(C)c(=O)c(=O)n2C	.	.	.	-9	2	3	5	.
Cc1cc(C(F)(F)F)n(-c2nc(C(=O)Nc3cccnc3)cs2)n1	-13	-7	i	-20	-3	-5	1	-4
COC(=O)Nc1nc(C)c(C(=O)N(C)C)s1	-14	1	i	-8	1	0	.	-7
Cc1nc(N)nc(N)c1CCCc1ccc(Cl)c(Cl)c1	66	.	i	-18	-7	-8	-10	.
O=C(CCS(=O)(=O)c1ccccc1)NNC(=O)CSc1ccccc1F	-7	.	.	-10	-2	2	.	.
CC(CC(=O)NCc1ccc(Cl)cc1)c1ccccc1 (stereo unspecified)	-10	10	i	-6	-5	-7	-1	-9
Cc1cc(Br)ccc1NC(=O)CNC(=O)CN(C)Cc1nc2ccccc2c(=O)[nH]1	-10	4	i	-30	0	3	16	-1
COc1ccc2[nH]c3c(c2c1)CCN1C(=O)N([C@@H](C)C(=O)NCc2c(F)cccc2Cl)C(=O)[C@]31C	-2	1	i	0	-1	-9	.	-17
CC(C)[C@H](NC(=O)N1CCC(Cc2ccccc2)CC1)C(=O)O	4	-4	i	-13	-2	3	13	-13
CCN(CC)S(=O)(=O)c1ccc(S(=O)(=O)N(Cc2ccccn2)Cc2ccco2)cc1	-7	4	i	-1	2	-5	.	-1
CC(C)NCC(O)COc1cccc2[nH]ccc12 (stereo unspecified)	-7	1	.	-15	4	6	.	-2
Cc1ccc(C#N)c(SCc2nnc(-c3ccc(Cl)cc3)o2)n1	8	1	i	-11	8	-3	i	-4
O=S1(=O)N=C(N(Cc2cccs2)c2ccc(O)cc2)c2ccccc21	-3	-10	i	.	-4	-5	10	1
Cn1c(-c2ccncc2)nc2ccccc21	-15	16	i	7	-1	-1	-6	-3
CN(CC(=O)Nc1ccccc1Br)C(=O)CNC(=O)c1ccc(Oc2ccccc2)cc1	0	0	i	-5	2	-16	0	-5
CC(C)CC(NC(=O)C1CCC(=O)N1)C(=O)NC(CC(C)C)C(=O)N1CCCC1C(N)=O (stereo unspecified)	-3	-1	i	-10	-1	0	-3	-11
CC(=O)N/N=C(\C)C1COc2ccccc2O1 (stereo unspecified)	-1	-2	i	3	.	.	4	-6
CSc1ccccc1NC(=O)CN(Cc1ccc(Cl)cc1)S(C)(=O)=O	-5	-9	i	4	-3	-5	.	2
COCCn1c(=NC(=O)c2ccccc2[N+](=O)[O-])sc2cc(S(C)(=O)=O)ccc21	-8	-4	i	.	2	-1	0	7
CCn1c(SCC(=O)NCc2ccc3c(c2)OCO3)nc2c(c1=O)SCC2	-13	2	i	-10	-5	3	-7	-11
Cn1c(=O)c([N+](=O)[O-])c(-n2ccnc2)c2ccccc21	4	-10	i	.	5	9	-51	0
O=C1C=C(c2ccccc2Oc2ccccc2)C[C@@H](c2ccc3c(c2)OCO3)C1	40	.	.	-14	-8	-14	-24	.
N#Cc1ccc(/C=N/NC(=O)CCc2ccc(S(=O)(=O)N3CCOCC3)cc2)cc1	-8	-4	i	.	5	3	10	1
CN(CCOc1ccccc1)C(=O)C1CCC(=O)N(CCN2CCOCC2)C1 (stereo unspecified)	-6	8	i	-12	0	2	12	-6
CCCc1cc2c(=O)c(-c3ccc4c(c3)OCCO4)c(C)oc2cc1OS(C)(=O)=O	52	-10	i	-2	6	-6	-14	-11
CSc1ccccc1NC(=O)C1C2CCC(C2)C1C(=O)O (stereo unspecified)	0	-5	i	-6	0	0	-9	-4
ClCc1csc(-c2ccc(Cl)cc2)n1	-5	8	i	-16	-6	-5	.	-7
CCOC(=O)Cn1nc(C)c(NC(=O)COc2ccccc2[N+](=O)[O-])c1C	-13	-4	i	.	3	-3	-9	1
Cc1ccc(N2CC(C(=O)Nc3ccc(C)c(S(=O)(=O)N(C)C)c3)CC2=O)cc1 (stereo unspecified)	4	9	i	.	4	-4	19	-6
Cc1ccc(N(C(=O)CNC(=O)c2ccco2)C(C(=O)NC2CCCCC2)c2cccnc2)cc1C (stereo unspecified)	-1	-4	i	12	1	2	9	-12
c1ccc(Cn2nnnc2C(c2ccccn2)N2CCOCC2)cc1 (stereo unspecified)	-4	-4	i	-1	12	4	.	2
CC1CC(C)CN(C(=O)COC(=O)CNS(=O)(=O)/C=C/c2ccccc2)C1 (stereo unspecified)	-11	-5	i	-20	1	5	-67	10
COc1ccc(-c2cc(=O)n(CCC#N)[nH]2)cc1	1	-14	i	-7	7	4	2	-1
CC(/C=N/N1CCN(c2ccc(C)cc2)CC1)=C\c1ccccc1	-13	10	i	-22	-1	-5	-12	-20
Cc1ccc(/C=C/C(=O)Nc2cc(S(N)(=O)=O)ccc2O)cc1	-14	-4	i	.	1	-4	8	-5
O=C(CNCc1ccc(Cl)cc1)Nc1ccc(C(=O)N2CCCCCC2)cc1	-7	3	i	-4	6	2	-1	-10
Cc1cc(CNC(=O)Cc2ccc(F)cc2)c2ccccc2n1	9	6	i	.	-2	-4	0	2
O=C(O)c1ccc2c(c1)C(=O)N(c1cccc3ccccc13)C2=O	-5	2	i	-16	-1	-1	10	-5
COc1ccc(CSc2ccc(S(=O)(=O)N3CCCC3)cn2)cc1F	.	.	.	-12	-2	-10	6	.
COc1ccc(NC(=O)/C=C/c2ccco2)cn1	0	-6	i	-17	1	3	-31	35
Cc1cc(C)c2nc(NNC(=O)c3ccc(S(=O)(=O)N4CC(C)CC(C)C4)cc3)sc2c1 (stereo unspecified)	118*	3	i	-25	12	-9	-27	-6
O=C(NNC(=O)C1CC(c2cccs2)=NO1)Nc1ccccc1 (stereo unspecified)	-9	-4	i	2	0	2	6	0
CC(=O)c1cc(CN2CCC(n3nccc3NC(=O)c3ccccc3Cl)CC2)cs1	-3	-2	i	-1	1	0	-28	4
CC1(C(=O)NS(=O)(=O)Cc2cccc(Cl)c2)CCN1C(=O)Cc1ccccc1 (stereo unspecified)	.	.	.	-5	-1	3	8	.

Looked up one by one from above, six records:
SMILES	CSC inhib	PABP FP inh	Rce1 inhib	UUG fidelity	MT1-MMP act inh	MT1-MMP act inh RFP	HIV Env fusion	eIF4H FP inh	others
COc1ccc(CSc2ccc(S(=O)(=O)N3CCCC3)cn2)cc1F	.	.	.	-12	-2	-10	6	.
CC(=O)c1cc(CN2CCC(n3nccc3NC(=O)c3ccccc3Cl)CC2)cs1	-3	-2	i	-1	1	0	-28	4
COc1ccc(-c2cc(=O)n(CCC#N)[nH]2)cc1	1	-14	i	-7	7	4	2	-1
CC1(C(=O)NS(=O)(=O)Cc2cccc(Cl)c2)CCN1C(=O)Cc1ccccc1 (stereo unspecified)	.	.	.	-5	-1	3	8	.
O=C(O)c1ccc2c(c1)C(=O)N(c1cccc3ccccc13)C2=O	-5	2	i	-16	-1	-1	10	-5
Cc1cc(CNC(=O)Cc2ccc(F)cc2)c2ccccc2n1	9	6	i	.	-2	-4	0	2

(continued)
SMILES	CSC inhib	PABP FP inh	Rce1 inhib	UUG fidelity	MT1-MMP act inh	MT1-MMP act inh RFP	HIV Env fusion	eIF4H FP inh	others
CN(C)c1nc(Oc2ccc(C(=O)OCC(=O)Nc3ccccc3)cc2)nc(N(C)C)n1	1	-2	i	-1	4	-2	.	-1
C=CCn1c(COc2ccccc2)nnc1SCC(=O)N/N=C/c1ccc(C)cc1	7	4	i	-8	6	-2	.	-6
COc1ccc([N+](=O)[O-])cc1NC(=O)Cn1ccsc1=N	-2	4	i	-14	0	7	.	6
OC(c1cccc(Cl)c1)c1nc(-c2ccoc2)cs1 (stereo unspecified)	.	.	.	-19	-2	0	-10	.
COc1ccc(N(CC(=O)Nc2ccccc2F)S(=O)(=O)c2ccc(OC)c(OC)c2)cc1	-11	65	i	-6	3	-1	-3	-4	eIF4H FP inh retest=48;PABP FP inh retest=1
Cc1nn(-c2cc(Cl)ccc2N)c(=O)c2ccccc12	-12	-10	i	.	0	-3	.	-14
Cc1ccc(S(=O)(=O)N2[C@@H](c3cccc4ccccc34)C(C(=O)O)=C[C@H]2C(C)(C)C)cc1	11	.	.	1	6	3	3	.
CCOC(=O)CN1C(=O)SC(CC(=O)Nc2nccs2)C1=O (stereo unspecified)	-3	1	i	-15	2	5	.	-1
CCn1c(SCCN2CCCCC2)nnc1-c1ccc(S(=O)(=O)N2CCOCC2)cc1	-14	44	i	6	2	-1	-20	2
O=C(COc1ccc(Cl)cc1Cl)N/N=C/c1ccc[nH]1	79*	-9	i	-10	-30	-25	11	-3
COc1ccc(CN(C)C(=O)C(Cc2ccccc2)NC(=O)c2ccccc2)c(OC)c1 (stereo unspecified)	-6	.	i	.	-9	-8	-77	.
COc1ccc(CCN2CN(S(=O)(=O)c3ccccc3)c3nc4ccccc4nc32)cc1	3	1	i	.	-8	-4	.	2
CS(=O)(=O)N(Cc1ccccc1)c1ccc(C(=O)Nc2ccc(C(N)=O)cc2)cc1	-5	-10	.	-31	2	-1	8	-4
CC(C)(C)CN1CCC(Oc2cccc(C(=O)N3CCC[C@H]3CO)c2)CC1	-11	-9	i	-24	1	4	-6	1
CC(C)(C)c1ccc(C(=O)N2CCC2(C)C(=O)NS(=O)(=O)c2ccc(C#N)cc2)cc1 (stereo unspecified)	.	.	.	-4	1	2	6	.
CCCNC(=O)C(=O)c1cccn1-c1ccsc1C(=O)OC	.	-2	i	-20	-1	0	-109	-3
O=C(CN1CCC(NC(=O)C2CCCCC2)CC1)Nc1cccc(F)c1	.	8	i	-2	0	1	-5	-16
O=C(CSc1ccsc1[N+](=O)[O-])NCCc1ccccc1	-3	5	i	-8	-3	2	-3	-5
O=C(NCc1ccc(Cl)cc1Cl)C1CCN(S(=O)(=O)c2ccc3c(c2)OCCCO3)CC1	.	-1	i	.	2	-4	.	3
COC(=O)c1cc(Br)c(=O)n(-c2ccc(OC)cc2)c1	-1	17	i	-12	-2	-1	.	-9
O=C(O)/C=C/C(=O)Nc1cccc2cccnc12	1	17	i	-18	0	2	-12	4
CC(C)Cn1c(-c2csc3c2CCCC3)n[nH]c1=S	-4	2	i	-18	0	-3	.	-6
Cc1c(C(=O)c2ccccc2)c2ccccn2c1CCC#N	-11	9	i	.	3	3	-6	1
O=C(CN1C(=O)C2CCCCC2C1=O)Nc1cccc([N+](=O)[O-])c1 (stereo unspecified)	19	.	i	-15	1	0	13	.
[2H]C(CCOS(N)(=O)=O)c1ccccc1 (stereo unspecified)	10	2	i	-1	.	.	-4	-11
COc1ccc(NC(=O)Cc2nnc(SCC(=O)Nc3ccccc3)n2C)cc1	5	-11	i	-20	1	2	-10	5
COc1cccc(C2C(C(=O)c3ccco3)=C(O)C(=O)N2CCN(C)C)c1OC (stereo unspecified)	-8	0	i	.	-4	-1	-17	7
